# Bioassay records (PubChem BioAssay)
# Rango complex inh: prevents formation of the Rango-importin beta complex; Q14974; Rango CFP/YFP FRET sensor + importin beta, 45 min; Potency, µM (titrated, usually from 92.2 µM), inactives show at the top dose inhibition of complex formation; hit rate 0.031% among 340,000; active = rising FRET ratio curve, often small or poorly fitted; inconclusive = mostly compound fluorescence or quenching in the first reads; inactive = flat curves in all reads;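 note: potency is the fitted concentration of half-maximal effect; 0% = DMSO wells and 100% = buffer wells lacking importin beta; nearly all actives have a fitted effect of over 15% in size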
# Target sequence (Q14974 whole entry, looked up): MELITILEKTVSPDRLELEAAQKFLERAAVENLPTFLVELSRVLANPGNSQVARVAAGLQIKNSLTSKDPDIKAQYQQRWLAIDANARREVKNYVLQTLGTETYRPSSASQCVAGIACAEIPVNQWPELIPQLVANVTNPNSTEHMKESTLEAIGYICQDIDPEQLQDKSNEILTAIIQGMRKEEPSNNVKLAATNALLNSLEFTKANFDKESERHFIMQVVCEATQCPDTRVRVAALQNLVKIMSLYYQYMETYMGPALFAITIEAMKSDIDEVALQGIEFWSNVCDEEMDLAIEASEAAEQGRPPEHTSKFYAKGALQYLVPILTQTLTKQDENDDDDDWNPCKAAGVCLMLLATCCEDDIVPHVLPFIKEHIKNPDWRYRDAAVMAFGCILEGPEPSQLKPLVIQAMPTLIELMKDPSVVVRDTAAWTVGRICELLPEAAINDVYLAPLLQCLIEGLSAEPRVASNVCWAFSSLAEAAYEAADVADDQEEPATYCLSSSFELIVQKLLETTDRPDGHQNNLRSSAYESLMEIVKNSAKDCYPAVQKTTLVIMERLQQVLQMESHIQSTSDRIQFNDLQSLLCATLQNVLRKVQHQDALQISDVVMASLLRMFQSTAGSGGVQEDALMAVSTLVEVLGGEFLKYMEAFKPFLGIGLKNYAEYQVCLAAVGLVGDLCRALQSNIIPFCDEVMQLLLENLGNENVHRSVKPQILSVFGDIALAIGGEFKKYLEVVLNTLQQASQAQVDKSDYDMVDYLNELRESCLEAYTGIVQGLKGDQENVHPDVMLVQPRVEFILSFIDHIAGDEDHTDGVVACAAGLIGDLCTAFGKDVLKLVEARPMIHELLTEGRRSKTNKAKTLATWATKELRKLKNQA
#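 FRET biosensor Rango (snurportin 1 IBB between N-terminal EYFP and C-terminal Cerulean), 50 nM in PBS/1 mM DTT/0.02% Tween-20/0.1% BSA, preincubated 5 min RT with compound; 0.125 microM importin beta added, 45 min RT, CFP/YFP FRET ratio read.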
# miR-21 reporter: miR-21 reporter, rising signal | HeLa miR-21 FLuc reporter, luciferase, 48 h | Potency, µM (series often up to 38.3 µM), without a hit: top-dose reporter change, positive = more light | 340,000 tested, under 10 active; active = well fitted rising curve with a large enough effect; inconclusive = small, poorly fitted or top-dose-only effect; inactive = no such curve, though single readings can be large or run the other way;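 note: % of control where 0% means no effect; miR-21 action dims this reporter so a rising signal means less miR-21 action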
#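 HeLa cells stably expressing CMV-driven firefly luciferase with a downstream miR-21 binding sequence, endogenously expressing miR-21, were treated with titrations (up to about 40uM final) for 48 hours at 37 degree Celsius. Luciferase luminescence was read after lysis.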
# Rango dissoc inh: inhibition of RanGTP-driven Rango-importin beta dissociation. Potency, µM (series often up to 46.1 µM), without a hit: top-dose activity change, negative = inhibition. O95149+P62826. hit rate 0.071% among 340,000. AID 540253. Biochemical FRET Rango-importin beta, RanGTP-induced dissociation; active means falling FRET ratio curve, often poorly fitted, with flat reads before Ran was added; inconclusive means other falling curves, or compound fluorescence or quenching; inactive means flat or rising ratio curve;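 note: potency is the fitted concentration of half-maximal effect; % of control where 0% means no effect; nearly all actives have a fitted effect of over 45% in size; -100% = wells without RanGTP and RCC1; the record marks most hits as doubtful in a second field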
#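 Quantitative HTS using a FRET biosensor: 0.1 uM Rango, 0.25 uM importin beta, 0.6 uM Ran, 2 mM GTP, 0.2 uM RCC1 final, PBS with DTT, Tween-20 and BSA. Post-read taken 45 min after Ran addition.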
# GLA inh pH 4.5: blocks human alpha-galactosidase A at pH 4.5; P06280; purified enzyme, 4-MU-alpha-Gal fluorescence, pH 4.5; activity change, negative = inhibition, % at 105 µM; 230,000 tested, under 10 active; AID 1467; inconclusive = small, poorly fitted or top-dose-only inhibition, or a rising curve; inactive = flat fitted curve, though single readings scatter; no compound was filed as active;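 note: 0% = full activity with enzyme and -100% = basal without enzyme; dose as in the result columns while the protocol names 77 µM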
# * = called active by the depositor; u = inconclusive; x = not tested or not shown; [ ] = remark or other dose.
SMILES,Rango complex inh,miR-21 reporter,Rango dissoc inh,GLA inh pH 4.5
CCOc1ccc(C(=O)NCC(c2cccs2)N(C)C)cc1 (centres undefined),-0.4%,-23%,-13%,3
Cc1cn(-c2cc(C(=O)Nc3ccc(C)c(NC(=O)N4CCNC4=O)c3)cc(C(F)(F)F)c2)cn1,-5.8%,0%,-6%,2
CCOC(=O)c1sc(NC(=O)CSC(=S)N2CCOCC2)nc1C,1.2%,1%,-9%,4
Cc1cc(-c2ccccc2)c2c3c(cn2n1)c(=O)n(C)c(=O)n3C,-1.0%,-5%,2%,10
O=C(NCCCN1CCCC1)c1ccc(CS(=O)(=O)c2c(Cl)cccc2Cl)o1,1.5%,0%,5%,x
CC(=O)c1c(C)[nH]c(=S)c(C#N)c1-c1ccc(F)cc1,-0.3%,-4%,-11%,-2
Cc1cc(OC(=O)c2ccc(OC(C)C)cc2)c([N+](=O)[O-])c(=O)[nH]1,0.2%,-4%,-1%,x
C/C(=N\NC(=O)c1ccco1)c1ccc(C(=O)O)s1,4.1%,-59%,-26%,x
O=C(Nc1ccnn1C1CCN(Cc2ccc(CO)o2)CC1)c1ccccc1,0.6%,1%,18%,x
COc1cc(C2C(C#N)=C(C)NC3=C2C(=O)CC(C)(C)C3)ccc1O (centres undefined),-1.3%,-4%,-7%,-15
COc1ccc(NC(=O)CCC(=O)N/N=C/c2ccc([N+](=O)[O-])s2)cc1,1.3%,u,8%,-5
COc1cccc(C(=O)Nc2nnc(C3CCCO3)s2)c1 (centres undefined),1.0%,-41%,-12%,3
CC(=O)Nc1ccc(NC(=O)C(Cc2ccccc2)NC(=O)C2CCCCC2)cc1 (centres undefined),-2.4%,-10%,16%,5
Cc1cc(NC(=O)CN2C(=O)/C(=C/c3ccccc3F)SC2=S)no1,u,1%,u,x
Cc1noc(NS(=O)(=O)c2ccc(NC(=O)c3cnc4n(c3=O)CCS4)cc2)c1C,-2.9%,-7%,14%,-1
CCCC(=O)N(c1ccc(F)cc1)C1C=CS(=O)(=O)C1 (centres undefined),2.6%,1%,-15%,-13
Cc1ccccc1-c1nn(-c2ccc(F)cc2F)cc1CNCCCO,0.1%,-8%,15%,4
CCOc1ccc(Oc2ccc(S(=O)(=O)N3CCOCC3)cc2N)cc1,-2.6%,18%,-3%,-9
O=C(NCCC1=CCCCC1)c1cnsn1,5.9%,-54%,-10%,6
Cc1ccc(S(=O)(=O)Nc2ccc(-c3csc(-c4ccccc4)n3)cc2)cc1,2.9%,-14%,5%,-6
N#Cc1ccc(C(=O)OCC(=O)Nc2ccc(S(N)(=O)=O)cc2)cc1,3.4%,-1%,-18%,5
C#CCSc1nnnn1-c1ccc(Br)c(C)c1,3.7%,5%,-6%,-7
CCOC(=O)CN(Cc1sccc1C)C(=O)Nc1ccc(OCC)cc1,2.4%,-12%,0%,1
COc1cccc(/C=C/C(=O)OCCN2C(=O)c3ccccc3C2=O)c1,-0.1%,-1%,12%,x

# Overlap with the part before: 7 compounds, followed by the next part.
SMILES,Rango complex inh,miR-21 reporter,Rango dissoc inh,GLA inh pH 4.5
CCOc1ccc(Oc2ccc(S(=O)(=O)N3CCOCC3)cc2N)cc1,-2.6%,18%,-3%,-9
O=C(NCCC1=CCCCC1)c1cnsn1,5.9%,-54%,-10%,6
Cc1ccc(S(=O)(=O)Nc2ccc(-c3csc(-c4ccccc4)n3)cc2)cc1,2.9%,-14%,5%,-6
N#Cc1ccc(C(=O)OCC(=O)Nc2ccc(S(N)(=O)=O)cc2)cc1,3.4%,-1%,-18%,5
C#CCSc1nnnn1-c1ccc(Br)c(C)c1,3.7%,5%,-6%,-7
CCOC(=O)CN(Cc1sccc1C)C(=O)Nc1ccc(OCC)cc1,2.4%,-12%,0%,1
COc1cccc(/C=C/C(=O)OCCN2C(=O)c3ccccc3C2=O)c1,-0.1%,-1%,12%,x
COc1ccc(S(=O)(=O)N2CCOCC2)cc1NC(=O)C1CC1,-4.6%,x,2%,x
CCOC(=O)c1c(C)[nH]c(C(=O)OC/C(O)=C(\C#N)c2nc3ccccc3[nH]2)c1C,u,-5%,-26%,-8
CC(C)CN(C(=O)COC(=O)CCc1c[nH]c2ccccc12)c1c(N)n(Cc2ccccc2)c(=O)[nH]c1=O,-3.8%,x,6%,x
CCc1ccc(C(=O)COC(=O)c2cncc(Br)c2)cc1,-0.6%,-3%,u,-3
Cc1ccc(S(=O)(=O)NCCC(=O)Nc2nnc(C)s2)cc1,3.8%,-9%,1%,6
COc1ccc(CCN2C(=NC(=O)C(C)C)SC3CS(=O)(=O)CC32)cc1OC (centres undefined),-2.0%,-5%,15%,-4
O=C(Nc1ccc(-c2nc3ccccc3[nH]2)cc1)C1CCCO1 (centres undefined),0.6%,16%,6%,-2
O=C(O)c1ccccc1C(=O)NNc1ccc(F)cc1F,-0.8%,-54%,1%,-3
COCCn1c(SCC(=O)Nc2ccc(NC(C)=O)cc2)nc2c([nH]c3ccccc32)c1=O,-0.3%,6%,-3%,x
Cc1ccc2nc(-c3ccccn3)cc(C(=O)Nc3ccc4c(c3)OCO4)c2c1,1.4%,-4%,-11%,4
C=CC[C@H](CC(=O)NCCO)C(=O)N[C@H](COC(=O)[C@H](CC=C)CC(=O)OC(C)(C)C)Cc1c[nH]c2ccccc12,1.3%,x,1%,x
CCCCn1c(N)c(N(CCOC)C(=O)c2ccc(-c3ccc(C(C)=O)cc3)o2)c(=O)[nH]c1=O,u,x,-13%,x
N=C(N)SCCc1cccc(CCSC(=N)N)c1,-1.5%,x,0%,-1
O=C1SCCC1NC(=O)C(c1ccccc1)c1ccccc1 (centres undefined),0.8%,8%,12%,-3
Cc1ccc(C)c(C(=O)c2ccccc2NC(=O)c2ccccn2)c1,-1.2%,1%,-6%,x
COC(=O)c1cc2sc(Cl)cc2n1CC(=O)Nc1cccc(SC)c1,u,-4%,-12%,10
CCc1nnc(NC(=O)c2cc(C)nc3ccccc23)s1,-0.5%,-3%,4%,1
CN(C)S(=O)(=O)c1cccc(NC(=S)N/N=C/C2CC=CCC2)c1 (centres undefined),3.2%,-18%,u,u
COc1ccc(S(=O)(=O)N2CCN(c3ccccn3)CC2)cc1[N+](=O)[O-],4.7%,0%,1%,-8
O=c1[nH]c(CN2CCN(S(=O)(=O)c3ccccc3C(F)(F)F)CC2)nc2sc3c(c12)CCCC3,-4.6%,-2%,-8%,-4
CC1CCN(c2c(NCc3ccc(C(=O)N4CCN(C5CCCCC5)CC4)cc3)c(=O)c2=O)CC1,3.1%,-8%,-2%,1
Cc1ccc(NC(=O)CCCCCN2C(=O)c3ccccc3C2=O)nc1,0.0%,-2%,1%,0
CCCn1c(/N=C/c2ccccc2O)nc2ccccc21,-4.7%,3%,30%,5
O=C(CN1C(=O)c2ccccc2S1(=O)=O)c1ccccc1,1.2%,29%,2%,4
COc1cc(/C=N/n2cnnc2)ccc1Oc1nc(Cl)ncc1F,-3.4%,4%,21%,2
NCCCCCc1nnc(SCC(N)=O)o1,4.6%,0%,3%,-4
Cn1c(SCC(=O)N2CCCc3ccccc32)nc2ccccc2c1=O,3.4%,8%,-6%,5
C=C1CCN([C@H](C(=O)OCc2ccc(C)cc2)C(C)C)S(=O)(=O)c2ccccc21,-2.0%,13%,-12%,-3
COc1ccc(CN(Cc2ccc(C(=O)O)cc2)C(=S)Nc2ccccc2C)cc1OC,-1.4%,0%,-22%,-15[21.1 µM]
O=C(Nc1ccc(Cl)cc1)C1CC=CCC1C(=O)OCC(F)(F)C(F)F (centres undefined),-2.5%,-1%,-20%,4
CCCCN(C(=O)C1CSC2(C)CCC(=O)N12)c1c(N)n(Cc2ccccc2)c(=O)[nH]c1=O (centres undefined),-1.9%,x,4%,x
O=C(NCc1ccc2c(c1)OCO2)C12CN(Cc3ccccc3)CC1C(c1cccc([N+](=O)[O-])c1)=NO2 (centres undefined),1.9%,-2%,9%,-1
Cc1cc(C)nc(NC(=S)Nc2ccc(F)cc2F)c1,2.0%,-9%,-12%,4
Cc1ccc2c(CN3CCC(C(N)=O)CC3)cc(=O)oc2c1C,u,-16%,-8%,x
O=C(Nc1cccc(S(=O)(=O)N2CCCC2)c1)c1cccnc1,0.3%,0%,-12%,x
O=C(c1ccco1)N1CCN(C(=O)c2ccc(Cn3cc(Br)cn3)o2)CC1,-0.3%,1%,-8%,-9
N=c1c2c(n(Cc3ccc(Br)cc3)c3c1CCC3)CCCC2,0.1%,u,1%,-2
O=S(=O)(Nc1ccc(Cl)cc1)c1ccc(N2CCOCC2)c(NC(=S)NCCN2CCOCC2)c1,2.6%,2%,2%,-2
CC1(C)CC(=O)C/C(=N\NC(=O)C2CC23CCC3)C1 (centres undefined),u,-5%,-8%,8
COc1ccc(N(C(=O)c2cccc(OC)c2OC)C2C=CS(=O)(=O)C2)c(OC)c1 (centres undefined),-1.4%,-8%,1%,-5
COc1ccc(CNC(=O)c2cc(=O)c3ccccc3o2)cc1,3.6%,1%,-15%,x
CCOC(=O)CNC(=O)CSc1nnc(-c2ccccc2)c(-c2ccccc2)n1,-3.4%,-2%,2%,-4
O=C(Cc1ccccc1)N1N=C(c2ccncc2)CC1(O)C(F)(F)F (centres undefined),-1.6%,-13%,-16%,-5
COc1ccc(OC)c(NC(=O)c2cc(S(=O)(=O)N3CCCC3)cn2C)c1,-0.3%,0%,-9%,x
Cc1onc(-c2ccccc2)c1C(=O)N1CCOCC1,-0.1%,-6%,-10%,4
Cc1cc(NC(=O)CSc2nnnn2-c2ccc(C(C)C)cc2)no1,-1.8%,11%,7%,x
O=C(CCN1C(=O)c2ccccc2S1(=O)=O)Nc1cccc2ccccc12,-3.1%,0%,2%,3
O=C(CCN1CCOCC1)Nc1ccc(Cl)cc1,-0.5%,-1%,-5%,x
CCNC(=O)c1c(C)[nH]c(C(=O)OCC)c1C,-0.8%,-3%,-3%,10
Nn1c(SCc2ccc(F)cc2)nnc1-c1ccccn1,-6.0%,-18%,28%,2
COc1ccc(NC(=O)CC2C(=O)N(c3ccc(Cl)cc3)C(=S)N2NC(=O)c2cccc(F)c2)cc1 (centres undefined),-3.5%,-17%,u,4
FC(F)(F)c1ccc(NC(=S)NC2CCCCC2)cc1,0.7%,23%,-6%,4
O=C(Cc1ccc(S(=O)(=O)N2CCOCC2)s1)Nc1nc2c(s1)CCCC2,u,-4%,-24%,-12
CCOc1ccc(OCCn2c(=S)[nH]c3c(N)ncnc32)cc1,5.1%,-21%,-7%,-3
O=C(NCCCCc1ccccc1)NC[C@@H]1CC[C@@H](Cc2ccc(-c3ccccc3)cc2)O1,8.1%,x,-19%,x
CC1(C)Cc2c(C#N)c(SCC(=O)c3ccccc3)nc(N3CCOCC3)c2CS1,u,0%,-4%,-8
Cc1[nH]c2ccccc2c1C(=O)CN1CCN(c2ccc(Cl)cc2)CC1,1.9%,1%,19%,x
COc1ccc(-c2c(C)[nH]n3c(=O)c(Cc4ccccc4)c(C)nc23)cc1OC,-3.9%,21%,8%,-1
S=C1NC[C@H](CC2CCCCC2)N1CCCCC1CCCCC1,-1.2%,0%,-10%,-5
Cc1cc(C)n(CC(=O)O)c(=O)c1[N+](=O)[O-],2.8%,-1%,0%,-4

# Later entries
SMILES,Rango complex inh,miR-21 reporter,Rango dissoc inh,GLA inh pH 4.5
CC(C)(C)Nc1nc(N)nc(Cl)n1,-1.0%,-4%,-8%,8
Cc1cccc2c(C(=O)n3cccn3)cc(-c3ccccc3Cl)nc12,-0.4%,-4%,-23%,1
Cc1nnc(NC(=O)c2ccc(-c3ccc([N+](=O)[O-])cc3)o2)s1,-3.4%,0%,-20%,x
N#Cc1ccccc1CN1C(=O)S/C(=C/c2cccn2-c2cccc(C(=O)O)c2)C1=O,u,-6%,-3%,-2
c1ccc(Oc2c3ccccc3nc3ccccc23)cc1,u,24%,-16%,22
Cn1c(N2CCCC2)nc2c1c(=O)[nH]c(=O)n2C,0.1%,-4%,2%,x
CC(=O)C1=C(O)C(=O)N(CCC(=O)O)C1c1ccccc1Cl (centres undefined),11%,-3%,-19%,1
COc1ccc(F)cc1S(=O)(=O)n1cnc2ccccc21,-0.3%,-3%,9%,x

# Some of the compounds tested; count on the stated rates, not on these rows.
